ClpP mod – qHTS Assay for Activators of ClpP; ATP-dependent Clp protease proteolytic subunit (Bacillus subtilis (strain 168)), P80244; purified B. subtilis ClpP, FRET peptide cleavage, 20 min; Potency, µM (highest dose often 57.5 µM), without a hit: top-dose activity change, negative = active; 340,000 compounds, 1.9% hits; active = well fitted falling curve with a large enough effect; inconclusive = small, poorly fitted or top-dose-only effect; inactive = no such curve, though single readings can be large or run the other way; note: potency is the fitted concentration of half-maximal effect; the source files actives as falling curves though it sought activators and does not explain the sign; nearly all actives have a fitted effect of over 65% in size; many hits overshoot -100%
Target sequence (P80244 whole entry, looked up): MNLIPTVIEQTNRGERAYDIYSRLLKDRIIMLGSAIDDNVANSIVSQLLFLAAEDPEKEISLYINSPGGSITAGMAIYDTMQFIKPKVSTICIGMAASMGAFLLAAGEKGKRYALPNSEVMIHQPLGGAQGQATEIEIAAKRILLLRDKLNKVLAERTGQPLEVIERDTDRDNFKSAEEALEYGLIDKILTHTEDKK
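Buffer: 100 mM Tris/HCl pH8, 100 mM KCl, 0.05% low protease BSA, 2.5% glycerol, 0.01% Tween-20. ClpP 10 microg/mL final; 20 min RT; delta FRET normalized to ADEP and DMSO controls.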
TRPML1 ag – activates the human TRPML1 channel | Q9GZU1 | TRPML1-expressing cells, Ca2+ dye fluorescence, FDSS; host cell line not named in the record; reference of the full effect not given here | activation, % (test concentration not listed) | 410,000 compounds, 0.12% hits | AID 624414; in the data active = activation above about 50%; inconclusive = about 30% to 50%; inactive = below about 30%; note: 0% is about no effect; the text of the record puts the active cut at 80%
Target sequence (Q9GZU1 whole entry, looked up): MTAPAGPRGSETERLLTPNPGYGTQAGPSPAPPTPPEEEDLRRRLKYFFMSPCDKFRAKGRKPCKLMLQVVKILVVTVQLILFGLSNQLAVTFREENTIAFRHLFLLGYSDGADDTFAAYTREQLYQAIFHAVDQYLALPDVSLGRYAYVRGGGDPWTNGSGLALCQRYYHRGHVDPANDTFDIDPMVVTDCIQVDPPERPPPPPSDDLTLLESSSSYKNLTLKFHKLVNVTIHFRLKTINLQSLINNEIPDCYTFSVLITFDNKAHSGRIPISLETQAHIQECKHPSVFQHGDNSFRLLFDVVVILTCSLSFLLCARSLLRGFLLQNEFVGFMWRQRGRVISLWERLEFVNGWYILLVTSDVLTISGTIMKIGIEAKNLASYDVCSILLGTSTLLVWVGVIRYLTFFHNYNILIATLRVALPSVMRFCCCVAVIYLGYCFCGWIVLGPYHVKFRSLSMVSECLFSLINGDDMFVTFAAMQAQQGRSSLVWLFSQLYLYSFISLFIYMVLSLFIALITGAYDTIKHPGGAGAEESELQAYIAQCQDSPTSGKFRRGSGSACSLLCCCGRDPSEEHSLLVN
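Tetracycline-induced TRPML1-DL cells are seeded and incubated overnight before loading with a no-wash Ca2+ dye and quencher. Agonist activity is taken from the 110 s fluorescence read following compound pin-transfer on an FDSS, before EC80 54-4 challenge.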
An asterisk follows results filed as active. Only part of the results is shown, so the mix of outcomes need not match the whole.

For CCc1nc2cc(NC(=O)C3(C)CCCN(C(C)=O)C3)ccc2o1 (stereo not given) the results were ClpP mod -0.3% and TRPML1 ag -0.2.
Screening CC1(C(=O)NS(=O)(=O)c2ccccc2Cl)CCN1C(=O)c1cccc2ccccc12 (stereo not given) returned ClpP mod 0.3% and TRPML1 ag -0.7.
`COc1ccc(C(O)c2nc(-c3cccc(C(C)C)c3)cs2)cc1` (stereo not given) gave ClpP mod -0.2% and TRPML1 ag 0.3.
C[C@@H]1[C@H](c2ccccc2)OCCS(=O)(=O)N1Cc1ccccc1 was read as ClpP mod 0.6% and TRPML1 ag -0.3.
For Cc1ccc(-c2csc(C(O)c3ccc(F)c(F)c3)n2)cc1C (stereo not given) the results were ClpP mod 0.7% and TRPML1 ag -0.7.
CSc1ccc(CNC(=O)C2(C)CCCN(C(C)=O)C2)cc1 (stereo not given) was read as ClpP mod 0.6% and TRPML1 ag 0.3.
`COCCN1C[C@@H](CO)O[C@@H](n2cnc3c(NC4CCCC4)ncnc32)C1` gave ClpP mod -4.0% and TRPML1 ag 0.0.
For Cc1ccc(OCCN2CCC2(C)C(=O)NCc2ccc(C(F)(F)F)cc2)cc1 (stereo not given) the results were ClpP mod -0.1% and TRPML1 ag -0.8.
For COc1cccc(OC)c1OCCN1CCC(C(=O)NC(c2ccccc2)c2ncccc2C)CC1 (stereo not given) the results were ClpP mod 1.4% and TRPML1 ag -1.0.
Screening C#CCNC(=O)C[C@@H]1C[C@@]2(C(=O)OCC)CCC=C2N(Cc2ccc(Cl)cc2Cl)C1=O returned ClpP mod 0.4% and TRPML1 ag -0.8.
`COc1ccc(-c2coc3c(C(=O)NCc4ccc(C(F)(F)F)cc4)cccc23)c(C)c1` gave ClpP mod -24% and TRPML1 ag 0.8.
Screening OC(c1ccccc1)c1nc(-c2cccc(F)c2)cs1 (stereo not given) returned ClpP mod 1.5% and TRPML1 ag -1.0.
`Cc1cc(C)n2c(Nc3ccc4c(c3)OCCO4)c(CC(C)C)nc2n1` gave ClpP mod 0.0% and TRPML1 ag -1.2.
Screening O=C(Nc1cc(OC(=O)C(F)(F)F)c2nonc2c1OC(=O)C(F)(F)F)C(F)(F)F returned ClpP mod -1.1% and TRPML1 ag -0.2.
For N#Cc1ccc(S(=O)(=O)N2CCCCC2c2cc(C(=O)N3CCOCC3)no2)cc1 (stereo not given) the results were ClpP mod -0.3% and TRPML1 ag -0.4.
`CCOC1=C2CN(S(=O)(=O)c3ccc(C)cc3)[C@H](c3ccccc3)C[C@@H]2N(S(=O)(=O)c2ccccc2C)[C@H](c2ccccc2)C1` gave ClpP mod 0.2% and TRPML1 ag -0.6.
CCc1nc2c(OCc3cccc(OC)c3)cccn2c1N(C)C(=O)c1ccc(OC)cc1 was read as ClpP mod 1.0% and TRPML1 ag -0.5.
For COc1ccc(CC(N)c2csc(NC(=O)c3ccccc3)n2)cc1 (stereo not given) the results were ClpP mod -4.5% and TRPML1 ag -0.3.
For Cc1csc(-c2cc(C(=O)NCc3ccc(F)cc3)n[nH]2)c1 the results were ClpP mod -9.4% and TRPML1 ag -0.4.
COCc1cccc(-c2csc(C(O)c3ccc(F)cc3)n2)c1 (stereo not given) was read as ClpP mod -7.8% and TRPML1 ag -1.1.
For CC1(C(=O)NS(=O)(=O)Cc2cccc(Cl)c2)CCN1C(=O)c1cccc(F)c1 (stereo not given) the results were ClpP mod -1.6% and TRPML1 ag -0.6.
Cn1c(=O)c2cc(NC(=O)Nc3ccccc3)ccc2n1Cc1ccccc1 was read as ClpP mod 4.9% and TRPML1 ag 0.2.
Screening CC(C)(C)c1ccc(S(=O)(=O)NC(=O)C2(C)CCN2C(=O)C2CC2)cc1 (stereo not given) returned ClpP mod -1.8% and TRPML1 ag -0.4.
CN(C)c1ccc(/C=C/c2cc3ccccc3c[n+]2C)cc1 was read as ClpP mod -1.8% and TRPML1 ag -0.4.
For COc1cccc(C(C)(O)c2nc(-c3cccc(C(=O)O)c3)cs2)c1 (stereo not given) the results were ClpP mod 0.5% and TRPML1 ag -0.1.
`CCc1nc2ccc(C(=O)N(C)CCN(C)C)cn2c1N(C)CCC(C)C` gave ClpP mod -0.2% and TRPML1 ag -0.4.
`Cc1cnc(C)c(Nc2nc(C(N)Cc3ccc(F)cc3)cs2)n1` (stereo not given) gave ClpP mod -0.2% and TRPML1 ag 0.2.
For CC1(Cc2cc(Cl)ccc2C(F)(F)F)C(=O)Nc2cc(F)ccc21 (stereo not given) the results were ClpP mod 2.3% and TRPML1 ag 0.2.
For CCOC(=O)C1=C[C@@H](C(C)(C)C)N(S(=O)(=O)c2ccc(C)cc2)[C@H]1c1ccc(Cl)c(Cl)c1 the results were ClpP mod -3.5% and TRPML1 ag -0.6.
For COc1ccc2[nH]c(C(O)C(O)c3nc4c(OC)c(OC)ccc4[nH]3)nc2c1OC (stereo not given) the results were ClpP mod -4.4% and TRPML1 ag -0.6.
`CC(C)CNc1ncnc2c1ncn2[C@H]1CN(Cc2ccc(Cl)cc2)C[C@@H](CO)O1` gave ClpP mod -0.4% and TRPML1 ag -0.3.
NC(CCc1ccccc1)c1csc(NC(=O)NCC2CCCCC2)n1 (stereo not given) was read as ClpP mod -0.3% and TRPML1 ag -0.4.
Screening COc1ccc(-c2nc3ccc(Br)cn3c2Cc2ccccc2C(F)(F)F)cc1OC returned ClpP mod -8.1% and TRPML1 ag 0.5.
O=C1N(Cc2ccccc2)c2ccccc2OC1(F)F was read as ClpP mod -0.2% and TRPML1 ag -0.8.
Screening COc1ccc(C(c2nnnn2Cc2ccccc2)N2CCN(C/C=C/c3ccccc3)CC2)cc1 (stereo not given) returned ClpP mod 0.5% and TRPML1 ag 0.2.
Screening Cc1ccccc1C(=O)NCCN1CCC(n2c(=O)[nH]c3ccccc32)CC1 returned ClpP mod 1.2% and TRPML1 ag -0.4.
For CC(C)c1ccc(C(=O)C[N+]2(C)CCOCC2)cc1 the results were ClpP mod 1.9% and TRPML1 ag -0.3.
CCCCCCCCN1C(=O)[C@H](CC(=O)NCCc2ccccc2OC)C[C@@]2(C(=O)OC)CCCCC=C12 was read as ClpP mod -6.2% and TRPML1 ag 1.1.
CCCCNC(=O)c1nc(C2CCN(S(=O)(=O)c3ccccc3)CC2)oc1-c1cccc(C(F)(F)F)c1 was read as ClpP mod -24% and TRPML1 ag -0.5.
`O=C(OCc1ccccc1)N1Cc2ccnnc2CC1c1ccccc1Br` (stereo not given) gave ClpP mod -1.5% and TRPML1 ag -0.3.
Screening COCCCNC(=O)c1cccc2c(-c3ccnn3C)coc12 returned ClpP mod -5.4% and TRPML1 ag -0.7.
For COc1ccc2c(c1)c1nnc(SC)nc1n2Cc1ccccc1 the results were ClpP mod 1.6% and TRPML1 ag -0.4.
OC[C@@H]1CN(C2CCCC2)C[C@H](n2cnc3c(NC4CCC4)ncnc32)O1 was read as ClpP mod -1.8% and TRPML1 ag -0.4.
For C=Cc1ccc(Cn2c(C)c(C(=O)NCCC#N)sc2=O)cc1 the results were ClpP mod -1.2% and TRPML1 ag -0.7.
`O=C(/C=C/[C@H]1O[C@@H](n2cnc3c(NC(=O)c4ccccc4)ncnc32)[C@H](O)[C@@H]1O)NCc1ccccc1` gave ClpP mod -5.3% and TRPML1 ag 0.0.

Some of these compounds in order of SMILES length, rising.
Screening COCCCNC(=O)c1cccc2c(-c3ccnn3C)coc12 returned ClpP mod -5.4% and TRPML1 ag -0.7.
CN(C)c1ccc(/C=C/c2cc3ccccc3c[n+]2C)cc1 was read as ClpP mod -1.8% and TRPML1 ag -0.4.
For C=Cc1ccc(Cn2c(C)c(C(=O)NCCC#N)sc2=O)cc1 the results were ClpP mod -1.2% and TRPML1 ag -0.7.
For COc1ccc(CC(N)c2csc(NC(=O)c3ccccc3)n2)cc1 (stereo not given) the results were ClpP mod -4.5% and TRPML1 ag -0.3.
`COc1ccc(C(O)c2nc(-c3cccc(C(C)C)c3)cs2)cc1` (stereo not given) gave ClpP mod -0.2% and TRPML1 ag 0.3.
For CCc1nc2cc(NC(=O)C3(C)CCCN(C(C)=O)C3)ccc2o1 (stereo not given) the results were ClpP mod -0.3% and TRPML1 ag -0.2.
Screening Cc1ccccc1C(=O)NCCN1CCC(n2c(=O)[nH]c3ccccc32)CC1 returned ClpP mod 1.2% and TRPML1 ag -0.4.
For Cc1ccc(OCCN2CCC2(C)C(=O)NCc2ccc(C(F)(F)F)cc2)cc1 (stereo not given) the results were ClpP mod -0.1% and TRPML1 ag -0.8.
Screening COc1ccc(-c2nc3ccc(Br)cn3c2Cc2ccccc2C(F)(F)F)cc1OC returned ClpP mod -8.1% and TRPML1 ag 0.5.
Screening CC(C)(C)c1ccc(S(=O)(=O)NC(=O)C2(C)CCN2C(=O)C2CC2)cc1 (stereo not given) returned ClpP mod -1.8% and TRPML1 ag -0.4.
For COc1cccc(OC)c1OCCN1CCC(C(=O)NC(c2ccccc2)c2ncccc2C)CC1 (stereo not given) the results were ClpP mod 1.4% and TRPML1 ag -1.0.
For CCOC(=O)C1=C[C@@H](C(C)(C)C)N(S(=O)(=O)c2ccc(C)cc2)[C@H]1c1ccc(Cl)c(Cl)c1 the results were ClpP mod -3.5% and TRPML1 ag -0.6.

(more compounds)
For FC(F)(F)c1ccc(-c2cccc3c2C2CC3CCN2Cc2ccc3c(c2)OCO3)cc1 (stereo not given) the results were ClpP mod inconclusive and TRPML1 ag -0.5.
COc1ccc(CCn2c3c(c(=O)[nH]c2=S)CN(Cc2ccccc2)CN3)cc1OC was read as ClpP mod -3.2% and TRPML1 ag -1.0.
c1ccc(Cn2sc(=Nc3ccccc3)nc2-c2ccccc2)cc1 was read as ClpP mod 4.3% and TRPML1 ag 0.4.
Cc1ccc(S(=O)(=O)N2CCC(=O)N([C@H](COCc3cccc(C(F)(F)F)c3)C(C)C)CC2)cc1 was read as ClpP mod 3.6% and TRPML1 ag 19.
Screening Cc1cc(C)c2nccc(C)c2c1 returned ClpP mod inconclusive and TRPML1 ag 0.1.
Screening COc1cc2nc(N3CCCCC3)nc(NC(C)C)c2cc1OC returned ClpP mod 4.1% and TRPML1 ag -0.6.
`COc1ccc(-c2csc(C(NC(C)=O)c3ccccc3)n2)cc1` (stereo not given) gave ClpP mod 0.2% and TRPML1 ag 0.1.
`O=C(NCc1ccccc1)OC1CC2CC1[C@H]1CCCCN1C2=O` (stereo not given in full) gave ClpP mod -2.4% and TRPML1 ag -0.1.
For Cc1onc(-c2ccccc2Cl)c1C(=O)Nc1nnc(C2CCCCC2)s1 the results were ClpP mod -1.5% and TRPML1 ag -0.1.
`OC[C@@H]1CN(Cc2ccc3c(c2)OCO3)C[C@H](n2cnc3c(NCc4ccncc4)ncnc32)O1` gave ClpP mod -6.1% and TRPML1 ag -0.2.
For O=C(NCc1cccc(F)c1)Nc1nnc([C@H]2C[C@H](O)[C@@H](CO)O2)s1 the results were ClpP mod -0.5% and TRPML1 ag -0.8.
`O=C(C[n+]1c2ccccc2cc2ccccc21)c1ccc(F)cc1` gave ClpP mod 3.8% and TRPML1 ag 0.5.
Screening COCCNC(=O)c1ccc(-c2cn[nH]c2)c2ccoc12 returned ClpP mod 5.0% and TRPML1 ag -0.7.
For C=CCn1c(SCC#N)nc2cc(Cl)ccc2c1=O the results were ClpP mod -0.2% and TRPML1 ag -0.6.
For COc1ccc(-c2nc3c4ccccc4ccn3c2Cc2ccsc2)cc1OC the results were ClpP mod 5.4% and TRPML1 ag 0.2.
`CC(C)(C)OC(=O)N1CCC[C@H]1C(=O)N1CCC[C@H]1C(=O)NCc1ccc(F)cc1F` gave ClpP mod -0.4% and TRPML1 ag -0.9.
Screening CC(C)C[C@H]1CN([C@@H](Cc2ccccc2)CN2CCC[C@H]2CN2C(=O)C(=O)NC[C@@H]2Cc2ccc(O)cc2)C(=O)C(=O)N1CC1CCCCCC1 returned ClpP mod 0.3% and TRPML1 ag -0.6.
`COc1ccc(-c2cc(C(=O)NCc3cccc(Cl)c3)[nH]n2)c(C)c1` gave ClpP mod -0.4% and TRPML1 ag -0.1.
`CCCNC(=O)C1(C)CCCN(CCC(=O)c2ccccc2)C1` (stereo not given) gave ClpP mod -1.7% and TRPML1 ag -0.3.
CC[C@@H]1Cc2[nH][nH]c(=O)c2[C@@H](c2ccc(F)cc2)O1 was read as ClpP mod -1.7% and TRPML1 ag -0.1.
Screening CCCCC(=O)N(C)c1c(CC)nc2c(OCc3ccccc3C)cccn12 returned ClpP mod -1.1% and TRPML1 ag -1.2.
Screening O=c1n2c(c(O)n1C1CCCCC1)C(c1ccccc1)=Nc1ccccc1C2 returned ClpP mod -0.1% and TRPML1 ag 10.
Screening COc1ccccc1CNC(=O)c1cc(-c2ccc(F)cc2C)n[nH]1 returned ClpP mod -3.1% and TRPML1 ag -0.7.
`CCOC(=O)C1=CCN(S(=O)(=O)c2ccccc2F)C1c1cccc(F)c1` (stereo not given) gave ClpP mod 2.1% and TRPML1 ag -0.2.
For COc1ccc(S(=O)(=O)NC(=O)C2(C)CCN2C(=O)Cc2cc(F)ccc2F)cc1 (stereo not given) the results were ClpP mod 0.4% and TRPML1 ag -0.1.
CCNC(=O)C1(C)CCCN(Cc2cccc(Oc3ccccc3)c2)C1 (stereo not given) was read as ClpP mod -0.6% and TRPML1 ag -1.0.
FC(F)C(F)(F)Oc1cccc(Nc2nccn3c(-c4cc(C(F)(F)F)cc(C(F)(F)F)c4)cnc23)c1 was read as ClpP mod 4.8% and TRPML1 ag 0.0.
